gsp antagonist: antagonizes gsp, the McCune-Albright syndrome mutation | gsp-mutant cells, cAMP HTRF, 30 min; control for the full effect not named in the record | Potency, µM (doses to about 76.9 µM), without a hit: top-dose activity change, negative = inhibition, most hits filed as inhibitors | actives 0.4% (n = 340,000); active = falling curve of any shape with a large fitted effect; inconclusive = falling curve, mostly with a smaller effect; inactive = flat or rising curve; cell line not stated here;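 also: intracellular cAMP measured with PDE inhibitor Ro 20-1724 present during compound exposure; potency is read from the fitted curve at half-maximal effect; % is scaled to controls: 0 for no effect and ±100 for the full control effect; nearly all actives have a fitted effect of over 65% in size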
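Cells in G418 medium, seeded 16-24 h, 37C; buffer exchange to DPBS + 1 mM CaCl2, 0.5 mM MgCl2, 0.05% BSA; cpds in DMSO + […] (300 uM stock), 30 min 37C; HTRF cAMP detection.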
TRPML1 inh: blocks the human TRPML1 channel. TRPML1-inducible cells, Ca2+ dye fluorescence, FDSS; active compounds read low; inhibition of EC80 agonist-evoked calcium signal. actives 0.02% (n = 390,000). activity change, negative = inhibition, % (no concentration beside the values). Q9GZU1; in the data active means activity change below about -50%; inconclusive means about -30% to -50%; inactive means above about -30%;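 also: stimulus is agonist 54-4 at its EC80 concentration; % is scaled to controls: 0 for no effect and ±100 for the full control effect; compound concentration not given in the record; the text of the record puts the active cut at -80%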
Target sequence (Q9GZU1 whole entry, looked up): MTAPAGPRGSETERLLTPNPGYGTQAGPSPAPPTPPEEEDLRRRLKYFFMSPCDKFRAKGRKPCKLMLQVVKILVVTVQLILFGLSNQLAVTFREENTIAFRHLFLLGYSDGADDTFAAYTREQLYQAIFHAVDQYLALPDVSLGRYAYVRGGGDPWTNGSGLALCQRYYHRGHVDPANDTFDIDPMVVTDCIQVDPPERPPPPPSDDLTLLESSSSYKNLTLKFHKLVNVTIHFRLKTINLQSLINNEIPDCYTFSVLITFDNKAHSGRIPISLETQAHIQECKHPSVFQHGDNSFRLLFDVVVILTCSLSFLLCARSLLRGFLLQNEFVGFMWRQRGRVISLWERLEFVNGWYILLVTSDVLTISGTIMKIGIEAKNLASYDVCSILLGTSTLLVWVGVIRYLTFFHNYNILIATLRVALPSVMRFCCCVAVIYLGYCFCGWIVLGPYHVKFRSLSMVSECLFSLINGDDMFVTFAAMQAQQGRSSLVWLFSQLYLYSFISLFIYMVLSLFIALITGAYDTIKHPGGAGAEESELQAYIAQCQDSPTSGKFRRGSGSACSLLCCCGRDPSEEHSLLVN
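Tet-induced TRPML1-DL cells loaded with Ca8 no-wash calcium dye were read kinetically on FDSS. Compound addition was followed by EC80 agonist 54-4 (4 uM final); inhibition was read over 110 s.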
TRPML1 ag: human mucolipin-1 channel agonism. Q9GZU1. TRPML1-expressing cells, Ca2+ dye fluorescence, FDSS; host cell line not named in the record; reference of the full effect not given here. activation, % (test concentration not listed). actives 0.12% (n = 410,000); in the data active = activation above about 50%; inconclusive = about 30% to 50%; inactive = below about 30%; also: 0% is about no effect; the text of the record puts the active cut at 80%
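Cells: TRPML1-DL, 1X Tet inducer, ~16 h at 37 degrees C/5% CO2. Dye: ABD Ca8 no-wash + quencher, 45-90 min RT. Read: 10 s baseline, compound add, 110 s agonist phase; 54-4 EC80 (4uM final), 110 s antagonist phase.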
gsp agonist: gsp mutant agonism; gsp mutant cells, cAMP HTRF, 30 min; control for the full effect not named in the record; actives 0.13% (n = 340,000); Potency, µM (highest dose often 76.9 µM), for the others: top-dose activation (cAMP increase), actives largely listed as activators; AID 624287; active = well fitted activation curve with a large enough effect; inconclusive = small, poorly fitted or top-dose-only effect, or another doubt; inactive = no such curve, though single readings can be large or run the other way; cell line not stated here;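 also: phosphodiesterase inhibitor Ro 20-1724 added with compounds to block cAMP breakdown; potency is read from the fitted curve at half-maximal effect; nearly all actives have a fitted effect of over 60% in size; about a fifth of the inactives were tested at one dose only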
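Cells stably selected in G418 were plated at 2000/well, grown 16-24 hr, then given compounds in DMSO with the PDE inhibitor […] (300 uM solution added) for 30 min at 37C; cAMP was read by HTRF.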
ClpP mod: qHTS Assay for Activators of ClpP | ATP-dependent Clp protease proteolytic subunit (Bacillus subtilis (strain 168)), P80244 | purified B. subtilis ClpP, FRET peptide cleavage, 20 min | Potency, µM (highest dose often 57.5 µM), without a hit: top-dose activity change, negative = active | actives 1.9% (n = 340,000) | AID 651965, 2013; active = well fitted falling curve with a large enough effect; inconclusive = small, poorly fitted or top-dose-only effect; inactive = no such curve, though single readings can be large or run the other way; also: potency is read from the fitted curve at half-maximal effect; the source files actives as falling curves though it sought activators and does not explain the sign; nearly all actives have a fitted effect of over 65% in size; many hits overshoot -100%
Target sequence (P80244 whole entry, looked up): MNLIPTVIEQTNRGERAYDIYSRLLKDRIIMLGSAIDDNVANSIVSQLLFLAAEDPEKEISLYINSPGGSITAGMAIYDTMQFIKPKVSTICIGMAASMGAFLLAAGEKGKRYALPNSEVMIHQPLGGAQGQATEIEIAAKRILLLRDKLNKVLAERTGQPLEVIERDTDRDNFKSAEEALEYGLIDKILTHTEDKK
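FRET quenching reversal measured ClpP activation: 10 microg/mL B. subtilis ClpP at pH 8 with the FRET-FV decapeptide, read at 430 nm after 320 nm excitation. The 20-min minus 0-min signal was scaled between DMSO/no-enzyme wells and ADEP (5.8 microM final).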
Menin MLL FP FL: menin-MLL binding inhibition, fluorescein peptide; Fluorescence polarization, fluorescein-MLL peptide displacement from menin; FP activity change, % at 61.4 µM; 290,000 tested, under 10 active; inconclusive = falling polarisation curve, or a change in total fluorescence; inactive = total fluorescence flat and polarisation flat or rising; no compound was filed as active; the % refers to the polarisation; negative = inhibition;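 also: % of control where 0% means no effect; inhibitors lower the polarisation; unlabelled MLL peptide was the positive control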
* = called active by the depositor; ? = inconclusive; · = not tested or not shown; & = joins results of further samples; [ ] = dose if it differs, or a comment. Compounds were not picked by outcome. About 2.1% of those tested had a hit in this group.

SMILES	gsp antagonist	TRPML1 inh	TRPML1 ag	gsp agonist	ClpP mod	Menin MLL FP FL
CC(C)NC(=O)N1[C@H](c2cccs2)[C@@H](C)C(=O)[C@@H](C)[C@@H]1c1cccs1	·	-4	-0.1	·	-1.3%	·
CCOC(=O)CCc1c(C)n(CC)c2ncnn2c1=O	-6%	-10	-0.2	8%	-2.2%	0.8
CCc1n[nH]c(=S)n1/N=C/c1c(C)nn(-c2ccccc2)c1Cl	-3%	18	0.0	3%[15.4 µM]	-0.2%	-3.9
CC(C)CNC(C(=O)Nc1ccc([N+](=O)[O-])cc1Br)c1ccccc1 (configuration not stated)	-9%	22	0.2	-56%[inhibitor]	-2.0%	0.0
Cc1onc(-c2ccccc2)c1CNC(=O)Nc1ccccc1	-1%	5	0.3	4%[15.4 µM]	·	-2.3
Cc1cc(=O)[nH]c(N/N=C/c2c(C)nn(-c3ccccc3)c2C)n1	10%	-8	-0.5	15%	·	-3.2
CCCCN(Cc1ccccc1)S(=O)(=O)c1cc2c(cc1Br)CC(C)N2C(C)=O (configuration not stated)	-19%	14	1.5	-8%	1.7%	·
CCC(=O)N=c1sc2cc(F)cc(F)c2n1C	0%	-11	0.5	-4%	-3.9%	·
CCCCC1C(=O)NN(c2ccccc2)C1=O (configuration not stated)	4%	20	-0.8	-3%	·	·
CCn1cc(CN2CCC(C(=O)Nc3ccc(Oc4ccccc4F)cc3)CC2)c(C)n1	22%	1	0.9	-3%[15.4 µM]	0.7%	·
Cc1ccc(Sc2c(C)[nH]n(C(C)(C)C)c2=O)cc1	-8%	-10	-0.5	4%	-1.8%	4.9
CC(C)CCNC(=O)CN(CCN1CCOCC1)C(=O)Cn1nnc(-c2ccc(F)cc2)n1	6%	11	-0.1	-3%	1.0%	-6.1
c1ccc(N2N=C(c3cccs3)CC2c2ccco2)cc1 (configuration not stated)	-1%[15.4 µM]	20	3.9	?	16µM*	9.0
CC1=C(C(=O)OCc2ccccc2)C(c2ccc([N+](=O)[O-])cc2)NC(=O)N1CCCCCC(=O)O (configuration not stated)	-21%	18	-0.6	11%	-2.9%	0.9&-4.4
COc1ccccc1CNN	11%	9	0.0	-31%[15.4 µM]	·	1.7
CNS(=O)(=O)c1cn(CC(=O)Nc2cccc(C(F)(F)F)c2)cc1S(=O)(=O)NC	·	23	-0.1	·	0.7%	·
Cc1ccc(-n2c(SCC(=O)Nc3ccc(N4CCOCC4)cc3)nc3ccccc3c2=O)cc1	-14%	-12	-0.3	-14%[15.4 µM]	0.3%	2.1
N#C/C(=C\c1ccccn1)c1ccccn1	-5%	9	0.5	?	·	1.7
Cc1cccc(C)c1NC(=O)CSc1nnc(Cn2nnc(-c3ccccc3)n2)n1-c1ccccc1	-13%	7	-0.4	14%	1.0%	0.2
CNc1c(NS(=O)(=O)c2ccc(C(C)(C)C)cc2)c(=O)oc2ccccc12	-14%	43	0.6	21%[15.4 µM]	-5.4%	-0.1
Cc1cc(C)cc(OC(C)C(=O)Nc2c(C(=O)c3ccccc3)oc3ccccc23)c1 (configuration not stated)	·	0	1.7	·	?	·
Cc1ccc2[nH]c(=O)c(C(c3nnnn3CC3CCCO3)N3CCc4ccccc4C3)cc2c1 (configuration not stated)	2%	0	-0.6	?	-19%	4.2
COCCN1CCn2c(nc3cc(NC(C)=O)ccc32)C1	8%	-4	0.8	-1%	4.0%	0.6
CC(C)OCCCNC(=O)c1ccc(NC(=O)C2=CSCCO2)cc1	7%	2	-0.6	-18%	-0.2%	·
O=C(CSc1nc2ccccc2nc1SCC(=O)N1CCOCC1)N1CCOCC1	-7%	-7	-1.0	?	-2.4%	44[activator]
Cc1nc2cc(NC(=O)NC3CC3)ccc2n1C	3%	-16	0.0	-1%[15.4 µM]	-1.7%	7.8
COc1ccc(CNC(=O)C(C)Sc2nc3ccccc3c(=O)n2CC2CCCO2)cc1 (configuration not stated)	?	20	6.1	-27%	2.4%	·
COc1ccc(CN2CCN(Cc3cc(=O)oc4cc(C)ccc34)CC2)c(OC)c1OC	?	19&-11	3.9&0.5	6%	-4.2%	-0.6
O=[N+]([O-])c1ccccc1S(=O)(=O)NCCC1=CCCCC1	-1%	57	0.0	-37%[inhibitor]	-1.1%	0.6
COc1ccc(NC(=O)CN2CCC(NC(=O)C3CCCCC3)CC2)c([N+](=O)[O-])c1	11%	45	0.3	2%	-1.6%	1.8
CCCCCC1=C(C(=O)OC)C(C(=O)OCC)N(S(=O)(=O)C(F)(F)F)c2ccccc21 (configuration not stated)	-4%	-9	-1.3	·	-21%	3.0
Cc1nc(N)nc(SCc2ccc([N+](=O)[O-])cc2)c1N	6%	-9	2.0	43%	1.6%	-8.3
CN(C)CCN(C(=O)c1cccc(Cl)c1)c1nc2c(Cl)cccc2s1	10%	5	0.1	18%	-1.9%	-2.4
CCc1ccc(/C=C2\C(=N)N3N=C(CC(=O)N4CCCCC4)SC3=NC2=O)cc1	-3%	-1	0.1	-17%	·	·
CN(/N=C/c1cc(Br)cc(Br)c1O)c1ccccc1	8%	0	0.4	21%	0.3%	-2.6
O=C(O)c1ccc(N=Nc2c(O)[nH]c3cc(Cl)ccc23)cc1	?	-10	8.9	1%	-0.6%	?

The last 3 records of the section above open the next one.
SMILES	gsp antagonist	TRPML1 inh	TRPML1 ag	gsp agonist	ClpP mod	Menin MLL FP FL
CCc1ccc(/C=C2\C(=N)N3N=C(CC(=O)N4CCCCC4)SC3=NC2=O)cc1	-3%	-1	0.1	-17%	·	·
CN(/N=C/c1cc(Br)cc(Br)c1O)c1ccccc1	8%	0	0.4	21%	0.3%	-2.6
O=C(O)c1ccc(N=Nc2c(O)[nH]c3cc(Cl)ccc23)cc1	?	-10	8.9	1%	-0.6%	?
Cc1ccc(OCC(=O)OCC(=O)NC2CCCC2)cc1C	16%	-8	1.9	?	0.8%	·
O=C(NCC(=O)N1CCCC1C(=O)O)OC1CCCCC1 (configuration not stated)	5%	-13	-0.5	18%	3.2%	0.2
O=C1c2ccccc2C(=O)N1CCc1nc2ccccc2c(=O)n1Cc1ccco1	-2%	8	3.3	-16%	-0.8%	-0.3
O=C(O)c1ccc(COc2ccccc2C=C2C(=O)c3ccccc3C2=O)cc1	-21%	4	-0.7	1%[15.4 µM]	·	4.3
Cc1ccc(CN2CCCN(C)CC2)c(C)c1	5%	0	0.1	-16%[15.4 µM]	0.3%	-0.3
Cc1ccc(C(=O)Nc2ccccc2C(=O)O)cc1S(=O)(=O)Nc1ccccc1	?	·	·	-32%[inhibitor]	1.2%	-1.0
O=C(NNC(=O)c1ccc([N+](=O)[O-])cc1)c1ccncc1	12%	3	-0.8	6%	-15%	4.6
CC(C)CC(=O)OC1C(N2CCOCC2)c2c(ccc(/C=C/C(=O)N3CCOCC3)c2O)OC1(C)C (configuration not stated)	-26%	-10	0.3	8%	-18%	-0.3
O=[N+]([O-])c1ccc(O)c(N=Cc2sc3ccccc3c2O)c1	?	11	6.8	-21%	-9.0%	?
Cn1c(N)c(N=Nc2ccc(S(N)(=O)=O)cc2)c(=O)n(C)c1=O	-10%	11	0.0	?	-1.3%	6.2
COC(=O)[C@]1(C)N[C@H](CN(C)C(=O)COc2ccccc2)[C@@H]2C(=O)N(C)C(=O)[C@@H]21	5%	3	0.8	·	-1.0%	·
CCOc1ccccc1CNC(=O)c1c([N+](=O)[O-])c(C)nn1C	-14%	-16	-0.4	-6%[15.4 µM]	0.5%	4.2
Cc1ccc(-n2nnc(-c3nsc(NC(=O)c4ccccc4)n3)c2C)cc1	·	13	1.3	·	-18%	·
COc1cccc(Nc2nc(NCC3CCCO3)c3ccccc3n2)c1 (configuration not stated)	-18%	-24	-0.1	3%	?	-2.6
CN(C)c1ccc(SC#N)cc1	-4%	44	0.7	-1%[15.4 µM]	-5.3%	3.5
O=c1ccsc2ccccc12	9%	0	0.4	-5%[15.4 µM]	-2.8%	·
O=C(CCCN1C(=O)CSc2ncccc21)N1CCN(c2cccc(C(F)(F)F)c2)CC1	-17%	-2	0.7	-21%	-5.1%	-1.4
O=C1CC(N2CCN(C3CC(=O)N(CCc4ccccc4)C3=O)CC2)C(=O)N1CCc1ccccc1 (configuration not stated)	0%	-2	0.1	35%	1.8%	2.4
CSc1ccccc1-c1nnc(-c2ccc(Cl)cc2)o1	-9%	-4	2.0	8%	32µM*	4.6
CC(=O)CC1(OC(C)=O)C(=O)N(C)c2ccccc21 (configuration not stated)	3%	-9	-0.4	16%	·	3.1
CCS(=O)(=O)c1ccc2oc(SCC(=O)Nc3ccc(OC)cc3OC)nc2c1	-3%	16	0.3	-51%	2.7%	0.8
CC1(C)Cc2c(c(-c3ccco3)nc3sc4c(NCCO)ncnc4c23)CO1	9%	-11	0.9	2%	3.8%	5.0
CCOc1ccc2c(c1)C(C)=CC(C)(C)N2	-1%	2	-0.4	·	4.1%	?
O=C(C1CC1)N1CCN(c2ccc([N+](=O)[O-])cc2-n2cccc2)CC1	-19%	-7	-0.1	-3%	·	0.5
C=CCSc1nc2ccccc2n2cnnc12	-4%	3	-0.5	16%	-1.3%	15
CCOC(=O)N1CCN(c2cc(NCCC(=O)O)c3c4c(onc24)-c2ccccc2C3=O)CC1	?	2	-1.2	-33%[inhibitor]	0.0%	?
CC(C)(C)C1CCc2onc(C(=O)N3CCOCC3)c2C1 (configuration not stated)	3%	3	0.1	9%	-0.6%	-1.4
O=c1ncn(-c2ccccc2C(F)(F)F)c2ncccc12	3%	-2	1.2	-2%	?	0.6
Cc1ccn2c(=O)cc(COc3ccc(NC(=O)COc4ccc(Cl)cc4)cc3)nc2c1	·	-11	-0.6	·	-2.1%	·
O=C(N/N=C/c1coc2ccccc2c1=O)c1ccccc1Br	2%	-7	0.4	8%	15%	1.1
COc1ccc(-c2cn(CCC(=O)O)c(-c3ccc(Cl)nc3)n2)cc1	-2%	1	0.1	-59%[inhibitor]	1.9%	·
COC(=O)CSc1nc(NCC(C)C)nc(N2CCOCC2)n1	-5%	-8	0.5	-69%[inhibitor]	0.1%	1.5
Fc1ccc(SCCc2ccncc2)cc1	2%&-13%	15&0	-0.8&-1.2	?	2.3%&-2.1%	1.5&1.9
Cc1ccccc1Cn1nc(C)c(NC(=O)/C=C/c2cnn(C)c2)c1C	1%	-7	-0.3	?	-3.6%	-2.5
COc1cccc(C=NNC(=O)C(C)SC(C)C(=O)NN=Cc2cccc(OC)c2)c1 (configuration not stated)	-8%	-3	-0.5	12%	·	·

Single entries from the list:
COc1ccc(-c2cn(CCC(=O)O)c(-c3ccc(Cl)nc3)n2)cc1 @ gsp agonist = -59%[inhibitor]
Cc1ccccc1Cn1nc(C)c(NC(=O)/C=C/c2cnn(C)c2)c1C @ Menin MLL FP FL = -2.5

Screening results (PubChem)
